# Bioassay records: PubChem, Fisher Drug Discovery Resource Center
# NPYLR7 agonist = agonists of mosquito NPYLR7 receptor, primary screen, cell-based, Aedes aegypti, calcium fluorescence, mosquito biting behavior. HEK293T NPYLR7/Galpha15, GCaMP6s calcium fluorescence. activation, % at 10 µM. 270,000 tested, 0.15% active. AID 1259423, 2018; in the data active means activation above about 40%;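 further: 0% = vehicle and 100% = reference agonist at the receptor; some compounds past the cut are filed as inactive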
# NPYLR7 agonist max-min = also measured in NPYLR7 agonist; calls as there; activation, %; measured here: Max-Min RFU normalised activation; some inactives read as strong as hits;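 span of the calcium signal over five minutes; 0% = vehicle and 100% = native peptide agonist; compound fluorescence can raise it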
# * = called active by the depositor; & = joins results of further samples.
SMILES,NPYLR7 agonist,NPYLR7 agonist max-min
CCc1ccc(C(C)NC(=O)Cn2cnc3sc(C)c(C)c3c2=O)cc1 (stereo not drawn),1,-1
O=C(NCc1cccc(O)c1)c1ccc(-n2cccc2)cc1,8,6
O=C(CC1C(=O)NCCN1Cc1cccs1)NCc1cc(F)cc(F)c1 (stereo not drawn),3,3
CC(C)(C)c1csc(Cn2cc(C3CC=CCC3)nn2)n1 (stereo not drawn),14,7
CC1Oc2ccccc2N(Cc2ccc(OC(F)(F)F)cc2)C1=O (stereo not drawn),4,2
COc1cccc(CN2CCC(C(=O)NC(C)c3ccc(OC)c(OC)c3)CC2)c1 (stereo not drawn),33,25
COc1cccc(CN2CCCC(O)(CN3CCOCC3)C2=O)c1OC (stereo not drawn),8,9
CCc1cc(N2CCN(CC)CC2)nc(SCc2cccc(C(=O)NCCN3CCOCC3)c2)n1,0,3
Cc1sc2ncnc(NCCS(=O)(=O)N3CCCC3)c2c1C,2,7
CCOC(=O)c1cc(C2CC2)n(-c2ccc(C(=O)NCCCn3ccnc3)cc2)n1,-3,3
CC(C)(C)C1(O)CN(c2ccccc2)C2=[N+]1CCCS2 (stereo not drawn),8&7,1&4
CCC(O)CN1CCN(C(=O)Nc2ccc(OC)cc2)CC1 (stereo not drawn),2,-1
COc1ccc(COCC(O)CNC2CCC(C)CC2)cc1 (stereo not drawn),-11,-13
CC(=O)c1ccc(C(=O)N(CCCN2CCOCC2)c2nc3ccc(F)cc3s2)cc1,-1,-3
c1ncc(-c2ccc(NCC3CCOCC3)cc2)o1,3&1,2&0
CN(C)CCNC(=O)Cn1ccc(NC(=O)CCc2ccsc2)n1,-2,-4
CNC(=O)C(C#N)C(=O)CCCn1nnc(-c2ccccc2)n1 (stereo not drawn),-3,-8
COc1cccc(N2C(=O)NC(=O)/C(=C/c3cn(C(C)=O)c4ccccc34)C2=O)c1,-2,-4
CNCc1nccn1Cc1c(C)cc(C)cc1C,3,17
O=C(C=Cc1c(F)cccc1Cl)N1CCN(S(=O)(=O)c2cccs2)CC1,9,5
Cc1c(C(=O)NCCN(C)C)c(C(F)(F)F)nn1C1CCCN(C)C1 (stereo not drawn),20,12
CCOCCn1c(=O)c2c(nc3n(-c4ccccc4F)c(C)c(C)n23)n(C)c1=O,-2,-1
CCCc1noc(CNC2(C(=O)OC)CCC(C)CC2)n1 (stereo not drawn),0,-3
CC(Oc1ccccc1)C(=O)Nc1cc(C2=CCCN(C)C2)nn1C (stereo not drawn),0,-1
C=C(C)Cn1c(=O)c2c(nc3n(CC(=O)OCC)c(C)cn23)n(C)c1=O,5,6
SMILES,NPYLR7 agonist,NPYLR7 agonist max-min
CCc1sc(C(=O)O)cc1C,7,3
CC1=NC2=C(C(=O)CCC2)C(c2ccc(Cl)c(Cl)c2)C1C(=O)OC1CCCCC1 (stereo not drawn),-2,-8
Cc1cc(C)n(-c2ccc(NC(=O)C3CCCCN3C(=O)c3c(F)cccc3F)cc2)n1 (stereo not drawn),7,2
Brc1cccc(-c2nc(-c3cccnc3)no2)c1,-6,-14
CCCS(=O)(=O)c1ccc(N2CCN(c3ccc(Cl)cc3)CC2)nn1,0,-8
Cc1cccc(Nc2cc3c(cn2)ncn3Cc2ccccc2)c1,-14,-13
COc1ccc(N2CCN(c3cc(Cl)nc(SCc4cccc(C(=O)O)c4)n3)CC2)cc1,-7,-16
Cc1csc(SCC(=O)NC2CCS(=O)(=O)C2)n1 (stereo not drawn),-1,3
CCOC(=O)c1cc(-c2cccc(NC(=O)c3cc(C)nn3C)c2)n(-c2cccc(C)c2)n1,20,8
Cc1nc2c([nH]c3ccc(Br)cc32)s1,10,4
Cn1c(CCNC(=O)C2CC3(CCNCC3)CN2)nc2ccccc21 (stereo not drawn),20,6
CCc1nc2n(n1)C(=O)C(C(c1ccco1)N1CCCC1)S2 (stereo not drawn),-3,8
c1csc(C2CCCN2c2nc3nonc3nc2NC2CCCC2)n1 (stereo not drawn),13,6
CCCCCCNC(N)=S,2,5
O=C(COc1cccc(Br)c1)Nc1ccc(Cl)cc1[N+](=O)[O-],-5,-10
CC(C)(C)OC(=O)N1CCN(Cc2nnc(Cc3ccccc3)o2)C2(CCCCC2)C1,-2,-72
CCCn1c(=O)[nH]c(=O)c2c3c(cnc21)C(=O)CC(c1cccs1)C3 (stereo not drawn),1,32
CN(Cc1ccccc1)C(=O)C1CCN(S(=O)(=O)c2ccc3c(c2)OCCO3)CC1,12,14
CN(C)c1ncc(CN2CCC(n3nccc3NC(=O)C3CCCC3)CC2)s1,3&7,-4&6
Cc1ccc(C(=O)NCCS(=O)(=O)N2CCc3ccccc32)cc1,1,0
NC(=O)c1ccc(C(F)(F)F)n(CCOc2ccc3ccccc3c2)c1=O,-2,-2
COCC1CN(Cc2ccc(OC)cc2)S(=O)(=O)c2cnccc2O1 (stereo not drawn),-9,0
CCN(CCc1nc2ccc(C)cc2[nH]1)C(=O)c1cn[nH]n1,-2,10
Cc1ccccc1C(=O)Nc1ccnn1C1CCN(CC2=CC[C@H]3C[C@@H]2C3(C)C)CC1,14,7
O=C(Nc1ccccc1-c1nc2cc([N+](=O)[O-])ccc2o1)c1ccco1,1,9
SMILES,NPYLR7 agonist,NPYLR7 agonist max-min
CCCc1onc(C)c1C(=O)NS(=O)(=O)c1ccc(C)s1,1&6,1&3
CCn1ccnc1CN(C)Cc1cn(Cc2ccccc2)nc1-c1ccc2c(c1)OCO2,-2,-8
COc1ccccc1NC(=O)Cn1nc(-c2ccccc2)c2sc(N3CCOCC3)nc2c1=O,-4,-8
CCCN1C(=O)C(c2c(CC)[nH]n(-c3ccccc3)c2=O)=C([n+]2cc(C)cc(C)c2)C1=O,-5,-5
Cc1cc(C)cc(N2C(=O)CSC2c2cccnc2)c1 (stereo not drawn),-6,-12
O=C(c1ccc(CSc2nnc(-c3ccccc3Cl)n2-c2ccc(F)cc2)cc1)N1CCOCC1,-8,6
COc1ccc(CNC(=O)c2cccnc2N2CCN(C(=O)c3cccs3)CC2)cc1,21,11
CCCCNC(=O)C1(C)CCN1C(=O)c1cncc(Br)c1 (stereo not drawn),3,0
COc1ccc2c(c1)OC[C@@H]1CN(C)C(=O)CCN(C(=O)c3ccco3)[C@H]21,8,19
COCCN1C(=O)N(Cc2cccc3ccccc23)C(=O)C12CCN(Cc1ccsc1)CC2,2,-9
COc1ccc(N2C3=[N+](CCCCC3)CC2(O)c2ccc(OC(F)F)cc2)cc1 (stereo not drawn),-7,-14
CCOc1ccc2c(=O)c(Oc3ccc(C(=O)OC)cc3)c(C(F)(F)F)oc2c1,-7,-13
O=C(Cc1cccs1)N1CC(=O)N2CCc3ccc(F)cc3C2C1 (stereo not drawn),-16,-9
O=C(N/N=C\c1ccccc1)c1cc(C2CC2)[nH]n1,4,8
Cc1nn(C)c2nc(C(C)C)cc(C(=O)N(C)CCCC(=O)O)c12,8,3
Cc1cc(C)n(-c2cc(C(F)(F)F)nc(-c3ccccc3)n2)n1,-12,-18
N#CCCN(C(=O)COC(=O)c1n[nH]c(=O)c2ccccc12)c1cccc(Cl)c1,11,10
O=C(NCCn1nc(-c2ccc(F)cc2)ccc1=O)c1ccccc1,-7,-7
COc1cc(CNc2nccnc2-c2cccc(C=O)c2)cc(OC)c1,-7,-12
CCCCN(Cc1ccc(OS(C)(=O)=O)cc1)C(=O)Nc1ccc(C)cc1,-4,6
Cc1ccc(C2(O)CCN(C(=O)C3CCCN(CC(N)=O)C3)CC2)nc1 (stereo not drawn),-1,1
CC1CCC2(CC1)NC(=O)N(CN1CCCC1c1cccs1)C2=O (stereo not drawn),2,7
Cc1onc(-c2c(F)cccc2Cl)c1C(=O)NC1CCCC1,5,4
Cc1ccccc1CN1C(=O)C(C)ON=C1c1ccccc1F (stereo not drawn),-1,-3
CCCCNC(=O)CCCCCNC(N)=O,55*,56*
SMILES,NPYLR7 agonist,NPYLR7 agonist max-min
CCc1cn[nH]c1C1CCCN(C(=O)CCn2c(=O)oc3ccc(C)cc32)C1 (stereo not drawn),0,2
Cc1ccc(C(CNC(=O)Cc2c(C)nn(C(F)F)c2C)N2CCOCC2)s1 (stereo not drawn),12,-1
COc1ccc(CN2CCN(Cc3ccsc3)CC2CCO)c(F)c1 (stereo not drawn),10,3
Cc1cc(=O)[nH]c(-n2nc(C)c(CCC(=O)Nc3nc4c(C)cccc4s3)c2C)n1,11,2
O=c1cc(O)c2sc(SCCN3CCOCC3)nc2[nH]1,0,-1
CC(=O)NC(CC(=O)N(C)Cc1ccccc1C)c1ccc(C)cc1 (stereo not drawn),11,7
CC(C)c1c(C#N)c(N)nc(SCC(=O)c2ccc(-c3ccccc3)cc2)c1C#N,-2,-3
COC(CNC(=O)c1c(O)nc2cc(C)ccn2c1=O)OC,-2,9
COc1ccc(-c2csc(-n3[nH]c(C)c(N=Nc4ccc(C(N)=O)cc4)c3=O)n2)cc1,-2&1,-4&-3
N#Cc1ccc(COc2ccc3[nH]c4ccccc4c(=O)c3c2)c(F)c1,19,9
CCOC(=O)C1=C(C)N=c2s/c(=C\c3ccc(O)c(OC)c3)c(=O)n2C1c1ccc2c(c1)OCO2 (stereo not drawn),10,-3
CCCNC(=O)Cn1nc2c(c1NC(=O)/C=C\c1ccc3c(c1)OCO3)CSC2,-12,-13
CN(Cc1cc(-c2ccccc2)on1)C(=O)c1ccc(=O)n(C)c1,5,3
N#Cc1ccccc1C=CC(=O)N1CCN(S(=O)(=O)c2ccccc2)CC1,-8,-10
COc1ccccc1N1CCN(C(=O)c2cccnc2)CC1,4,7
CCOC(=O)C1(CCc2ccccc2)CCCN(C(=O)c2ccc(COC)s2)C1 (stereo not drawn),6,5
CCc1cccc(NC(=O)N2CCC3(CC2)SCCN3C(=O)c2ccc(Cl)c(Cl)c2)c1,13,12
CN(C)S(=O)(=O)c1ccc(SCC(=O)N2CCNC2=O)nc1,1,2
CN(CCC#N)c1ccc(Cc2nc3ccccc3c(=O)n2Cc2ccc(Cl)cc2)cc1,0,-2
CCc1nc2ccc(C(=O)NCCN(C)C)cn2c1N(CC)CCOC,-3,-9
O=C(CCCc1c[nH]c2ccccc12)Nc1ccc(N2CCOCC2)cc1,2,8
CC(C)(CNC(=O)C1CCCc2ccccc21)N1CCOCC1 (stereo not drawn),2,2
COc1ccccc1C(=O)N1CCCN(c2nc(Cc3ccccc3)nc3c2cnn3-c2ccccc2)CC1,10,10
CCn1ccc(C(=O)N(Cc2cccnc2)c2nc3c(OC)ccc(Cl)c3s2)n1,-1,-3
CC(=O)c1ccc(NC(=O)c2cn(Cc3ccccc3)nc2OCc2ccccc2)cc1,5,-4
SMILES,NPYLR7 agonist,NPYLR7 agonist max-min
CNC1CCN(C(=O)c2cccc(NCc3ccc(F)cc3)c2)CC1,10,-3
CC1CCC2(CC1)OCC(C(=O)NC1CC1)N2C(=O)c1ccc(Cl)c(Cl)c1 (stereo not drawn),-3,7
Cc1cc(C)n(-c2ccc(C(=O)Nc3cccc(-c4ccnc(C)n4)c3)cc2)n1,-6,-11
O=C(c1ccc2[nH]c3c(c2c1)CCCC3)N1CCCC(Nc2ccccc2)C1 (stereo not drawn),-1&9,-4&3
C=CCNC(=O)[C@@H]1CCCC[C@@H]1C(=O)N1CCN(CCC)CC1,18,11
CCN(CC)S(=O)(=O)c1ccc(-c2nc(C#N)c(NCc3ccc4c(c3)OCO4)o2)cc1,0,15
CC(C)CN(CC(C)C)C(=O)CSC1CCS(=O)(=O)C1 (stereo not drawn),8,4
CCCN1CCN(c2nc3c(c(=O)[nH]c(=O)n3C)n2Cc2ccccc2)CC1,-1,39
O=S(=O)(Cc1ccc(Cl)cc1)c1ccc(NCc2ccccc2)nn1,-1,-3
O=C(Cc1ccccc1Cl)Nc1ccc(F)cc1F,7,6

# These rows are one share of the data; the hit share may differ from the screen's.
